GLA inh pH 4.5: qHTS Assay for Inhibitors of Human alpha-Galactosidase at pH 4.5. 230,000 tested, under 10 active. activity change, negative = inhibition, % at 105 µM. AID 1467, 2008. purified enzyme, 4-MU-alpha-Gal fluorescence, pH 4.5; inconclusive = small, poorly fitted or top-dose-only inhibition, or a rising curve; inactive = flat fitted curve, though single readings scatter; no compound was filed as active;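 note: 0% = full activity with enzyme and -100% = basal without enzyme; dose as in the result columns while the protocol names 77 µM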
Target sequence (P06280 whole entry, looked up): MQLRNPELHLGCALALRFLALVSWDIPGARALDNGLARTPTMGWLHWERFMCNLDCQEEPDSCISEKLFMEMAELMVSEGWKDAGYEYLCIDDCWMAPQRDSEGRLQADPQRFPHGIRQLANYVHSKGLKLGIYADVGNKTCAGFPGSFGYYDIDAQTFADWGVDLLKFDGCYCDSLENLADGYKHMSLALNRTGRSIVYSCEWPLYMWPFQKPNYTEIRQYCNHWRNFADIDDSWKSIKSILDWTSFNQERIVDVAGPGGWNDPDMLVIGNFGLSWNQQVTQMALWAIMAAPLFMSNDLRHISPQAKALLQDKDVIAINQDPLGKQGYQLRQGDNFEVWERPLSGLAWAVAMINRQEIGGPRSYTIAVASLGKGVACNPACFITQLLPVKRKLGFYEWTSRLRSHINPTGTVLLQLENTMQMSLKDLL
miR-21 reporter: qHTS Assay for Modulators of miRNAs and/orActivators of miR-21. HeLa miR-21 FLuc reporter, luciferase, 48 h. Potency, µM (titrated, usually from 38.3 µM), for the others: top-dose reporter change, positive = more light. 340,000 tested, under 10 active; active = well fitted rising curve with a large enough effect; inconclusive = small, poorly fitted or top-dose-only effect; inactive = no such curve, though single readings can be large or run the other way;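 note: % of control where 0% means no effect; miR-21 action dims this reporter so a rising signal means less miR-21 action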
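Compounds were titrated across several concentrations (up to approximately 40 uM) and incubated 48 hours with HeLa miR-21-FLuc reporter cells (miR-21 target sequence downstream of FLuc, endogenous miR-21). Readout was firefly luciferase luminescence after lytic detection reagent.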
Rango-impB inh: qHTS Assay for Inhibitors of Rango (Ran-regulated importin-beta cargo) - Importin beta complex formation | Importin subunit beta-1 (Homo sapiens), Q14974 | Rango CFP/YFP FRET sensor + importin beta, 45 min | Potency, µM (doses to about 92.2 µM), inactives show top-dose inhibition of complex formation | actives 0.031% (n = 340,000); active = rising FRET ratio curve, often small or poorly fitted; inconclusive = mostly compound fluorescence or quenching in the first reads; inactive = flat curves in all reads;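 note: potency is the fitted concentration of half-maximal effect; 0% = DMSO wells and 100% = buffer wells lacking importin beta; nearly all actives have a fitted effect of over 15% in size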
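FRET biosensor (snurportin 1 IBB flanked by EYFP and cerulean), 50 nM, with compound 5 min, then 0.125 microM importin beta in PBS, 1 mM DTT, 0.02% Tween-20, 0.1% BSA. CFP/YFP ratio read after 45 min at room temperature; pre-read flags interference.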
Rango release inh: qHTS Assay for Inhibitors of RanGTP induced Rango (Ran-regulated importin-beta cargo) - Importin beta complex dissociation; Snurportin-1 (Homo sapiens) + GTP-binding nuclear protein Ran (Homo sapiens) + Importin …; Biochemical FRET Rango-importin beta, RanGTP-induced dissociation; Potency, µM (doses to about 46.1 µM), inactives show top-dose activity change, negative = inhibition; actives 0.071% (n = 340,000); active means falling FRET ratio curve, often poorly fitted, with flat reads before Ran was added; inconclusive means other falling curves, or compound fluorescence or quenching; inactive means flat or rising ratio curve;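 note: potency is the fitted concentration of half-maximal effect; % of control where 0% means no effect; nearly all actives have a fitted effect of over 45% in size; -100% = wells without RanGTP and RCC1; the record marks most hits as doubtful in a second field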
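Rango/importin beta premix (0.1/0.25 uM final), PBS + 1 mM DTT + 0.02% Tween-20 + 0.1% BSA; cpd 5 min RT; FRET pre-read; + RanGTP-RCC1 (0.6 uM Ran, 2 mM GTP, 0.2 uM RCC1); 45 min RT; FRET post-read, ex 430, em 486/530 nm.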
Numbers without * were called inactive; ? = inconclusive; · = no result given. Not all compounds are listed. The share of hits here may be higher or lower than overall.

No. | molecule | GLA inh pH 4.5 | miR-21 reporter | Rango-impB inh | Rango release inh
1 | COc1ccc([N+](=O)[O-])cc1N(CC(=O)NC(C(C)C)C(C)C)S(C)(=O)=O | 6 | -1% | 0.5% | 0%
2 | COc1ccc(/C=C/C(=O)NC(=S)Nc2ccccc2)cc1OC | · | -7% | 5.4% | -16%
3 | Cc1c(CCC(C)C)c(-n2ccnc2C)n2c(nc3ccccc32)c1C#N | -1 | -6% | ? | -24%
4 | COC(=O)c1coc(-c2ccc(C)cc2)c1C(=O)OC | -1 | -32% | 0.1% | 22%
5 | Fc1ccc(CN2CCSCC2)cc1F | · | 7% | -0.2% | -6%
6 | C#CCO[C@@H]1C[C@H](n2cnc3c(NC(=O)c4ccccc4)ncnc32)O[C@@H]1CO | 1 | -24% | 3.2% | 2%
7 | CCOC(=O)C1=C(C)NC(=O)NC1c1ccc(OC(=O)c2ccco2)c(OC)c1 (stereo not drawn) | -20 | -4% | 2.6% | 2%
8 | Cc1nc(NC(=O)COC(=O)c2ccc(CO)cc2)c(Cl)cc1Cl | · | · | -1.9% | -14%
9 | CC(C)(C)C1CCC(=O)C(C2(O)C(=O)Nc3ccccc32)C1 (stereo not drawn) | -7 | 2% | 1.8% | -12%
10 | Cc1ccc(Cn2c(N3CCN(C)CC3)nc3c2c(=O)[nH]c(=O)n3C)cc1 | · | -2% | 0.0% | -8%
11 | Cc1cc(NC(=O)CCC(=O)N(CC(=O)NCC2CCCO2)c2ccc(Cl)c(Cl)c2)no1 (stereo not drawn) | · | -4% | 0.7% | -3%
12 | CC(=O)c1cccc(NC(=O)c2ccc(NS(=O)(=O)c3c(C)noc3C)cc2)c1 | 2 | -14% | 0.1% | 2%
13 | Cc1ccccc1C(=O)NCC(=O)NCC1(N2CCOCC2)CCCCC1 | · | · | 1.1% | 1%
14 | Cc1cc(NC(=O)c2ccno2)no1 | · | 0% | 0.1% | 13%
15 | CCN(CC)CCNC(=O)C(Oc1ccccc1)Oc1ccccc1 | · | -8% | 0.3% | -4%
16 | C/C(=N\NC(=O)c1ccc(-n2cnnn2)cc1)c1ccc(Cl)cc1 | · | · | 13% | 8%
17 | CCOc1ncccc1C(=O)OC(C)C(=O)Nc1ccc(Cl)cn1 (stereo not drawn) | · | · | 2.9% | 2%
18 | O=[N+]([O-])c1ccccc1S(=O)(=O)N1CCSCC1 | · | · | -3.1% | -6%
19 | Cc1ccccc1NC(=S)NNc1ncc(C(F)(F)F)cc1Cl | 3 | 7% | 3.2% | 0%
20 | Cc1ccc(C(C(=O)NC2CCCCC2)N(C(=O)c2csnn2)c2ccccc2F)o1 (stereo not drawn) | · | -1% | -0.5% | -7%
21 | CCn1nc(C(=O)OCC(=O)Nc2ncc(Cl)c(C)c2Cl)c2ccccc2c1=O | -11 | -7% | ? | 1%
22 | O=C(CSc1nc2ccccc2[nH]1)c1ccccc1F | · | -56% | -0.4% | -9%
23 | Cc1cc(C)cc(NC(=O)NC2CCCCCCC2)c1 | · | -25% | 0.7% | -4%
24 | Cc1ccc(S(=O)(=O)N2CCCC2CNC(=O)C(=O)NCc2cccs2)cc1 (stereo not drawn) | · | · | -1.4% | 12%
25 | O=C(C[n+]1cccc(Br)c1)c1ccc(-c2ccccc2)cc1 | · | -6% | 3.3% | -7%
26 | O=C1C(Cl)=C(O)C2(Cl)C(Cl)=C(Cl)C12Cl (stereo not drawn) | · | · | -0.3% | 9%
27 | COc1cccc(Nc2nc(NCCO)nc(N3CCCC3)n2)c1 | · | · | 4.0% | 15%
28 | Cc1cccc(C(=O)NCC(=O)NC(C)CCc2ccccc2)c1 (stereo not drawn) | · | 2% | 5.8% | -5%
29 | Cc1csc(NC(=O)Nc2ccccc2[N+](=O)[O-])n1 | -4 | -35% | -0.6% | -12%
30 | OC1CCN(Cc2cccc(Oc3ccccc3)c2)CC1 | 3 | -13% | 0.0% | 6%

Three compounds already listed, sorted by molar mass, largest number first:
No. | molecule | GLA inh pH 4.5 | miR-21 reporter | Rango-impB inh | Rango release inh
7 | CCOC(=O)C1=C(C)NC(=O)NC1c1ccc(OC(=O)c2ccco2)c(OC)c1 (stereo not drawn) | -20 | -4% | 2.6% | 2%
6 | C#CCO[C@@H]1C[C@H](n2cnc3c(NC(=O)c4ccccc4)ncnc32)O[C@@H]1CO | 1 | -24% | 3.2% | 2%
13 | Cc1ccccc1C(=O)NCC(=O)NCC1(N2CCOCC2)CCCCC1 | · | · | 1.1% | 1%

Profiles from above. Values in the order: GLA inh pH 4.5	miR-21 reporter	Rango-impB inh	Rango release inh
O=[N+]([O-])c1ccccc1S(=O)(=O)N1CCSCC1 reads ·	·	-3.1%	-6%
CCN(CC)CCNC(=O)C(Oc1ccccc1)Oc1ccccc1 reads ·	-8%	0.3%	-4%
O=C1C(Cl)=C(O)C2(Cl)C(Cl)=C(Cl)C12Cl (stereo not drawn) reads ·	·	-0.3%	9%
CC(=O)c1cccc(NC(=O)c2ccc(NS(=O)(=O)c3c(C)noc3C)cc2)c1 reads 2	-14%	0.1%	2%

Next results
No. | molecule | GLA inh pH 4.5 | miR-21 reporter | Rango-impB inh | Rango release inh
31 | O=C(CNC(=O)c1cc(=O)[nH]c2ccc(S(=O)(=O)N3CCOCC3)cc12)Nc1ccc(F)c(F)c1 | · | · | ? | ?
32 | CN1/C(=C\C(=O)Nc2cccnc2)c2ccccc2CC1(C)C | -2 | 1% | ? | 2%
33 | CC(C)CN1C(=O)/C(=C/c2cccs2)NC1=S | -13 | -7% | ? | ?
34 | CCc1nnc(NC(=O)c2cccnc2SC)s1 | 2 | -1% | 1.5% | -7%
35 | Cc1sc(NC(=O)c2ccc(F)cc2)c(CN2CCCCCC2)c1C | 4 | -58% | ? | ?
36 | CN(C)C(CNC(=O)c1ccco1)c1cccs1 (stereo not drawn) | · | · | 0.5% | 5%
37 | CCOC(=O)N1CCC(NC(=O)C2CCCN(C(=O)c3cc4sccc4n3C)C2)CC1 (stereo not drawn) | 2 | 8% | 2.1% | 1%
38 | CN(CC(=O)NCC1CCCCC1)CC(=O)Nc1ccc(F)cc1 | · | · | 0.1% | -6%
39 | Oc1[nH]c2ccccc2c1N=Nc1cccc(Cl)c1 | · | -26% | ? | -7%
40 | Cn1nnnc1SCC(=O)N1c2ccccc2CCc2ccccc21 | -13 | 0% | 0.5% | 2%
41 | CCCn1c(SCC(=O)c2cc(OC)ccc2OC)nnc1-c1ccco1 | 4 | -30% | 0.8% | 3%
42 | CN1CCN(S(=O)(=O)c2ccc(NC(=S)NC(=O)C3CC3)cc2)CC1 | 1 | -19% | ? | 0%
43 | CC(=O)N1CCC(N2CCN(c3ccccc3F)CC2)CC1 | 7 | -3% | 0.6% | 4%
44 | CCC(C)c1c(O)nc(SCC(=O)N2CCCCC2)[nH]c1=O (stereo not drawn) | · | 3% | 0.5% | -8%
45 | COC(=O)c1cc(CSc2nc3ccccc3c(=O)n2C)oc1C | · | -2% | 2.5% | -6%
46 | COc1cccc(C(=O)NCCSc2ccc(F)cc2)c1 | -29 | -56% | 4.6% | 16%
47 | CCOC(=O)CSc1nnc(CNC(=O)c2cccs2)n1-c1ccccc1 | 7 | 0% | -2.4% | 5%
48 | O=c1[nH]c2cc(S(=O)(=O)CCO)ccc2o1 | -1 | 4% | ? | -2%
49 | Cc1cc(C)c2oc(=O)cc(CN3CCN(Cc4ccc5c(c4)OCO5)CC3)c2c1 | -8 | -9% | 1.1% | -7%
50 | COc1ccccc1C(C#N)N1N=C(C)CC1(C)C (stereo not drawn) | 3 | -3% | 1.8% | -2%
51 | O=C(Nc1nccs1)C1CC2CCC1C2 (stereo not drawn) | 13 | -4% | -0.1% | 9%
52 | CCc1nnc(NC(=O)CSc2nc(-c3ccccc3)c(-c3ccccc3)o2)s1 | 2 | 3% | -1.0% | -8%
53 | Cc1ccc2c(CN3CCN(Cc4ccc5c(c4)OCO5)CC3)cc(=O)oc2c1C | -10 | 5% | 5.4% | -16%
54 | O=C(CN1CCOCC1)Nc1cc([N+](=O)[O-])ccc1Cl | -1 | 0% | -2.3% | 0%
55 | O=S(=O)(NC(=NCc1ccccc1)c1ccc(F)cc1)c1ccc(Cl)cc1 | -1 | -1% | -1.6% | 0%
56 | O=C(Nc1cccc2c1CCCC2)c1ccc(Cl)c([N+](=O)[O-])c1 | -7 | 0% | 6.5% | 0%
57 | CC(C)CN(C(=O)COC(=O)c1ccc2c(c1)OCO2)c1c(N)n(Cc2ccccc2)c(=O)[nH]c1=O | · | · | 5.2% | 14%
58 | Cc1ccc(-c2nnn(CC(=O)N(CC(=O)NC3CCCCC3)c3ccccc3F)n2)o1 | · | -1% | -0.5% | -5%
59 | CC(C)C(C(=O)N1CCOCC1)N1C(=O)c2ccccc2C1=O (stereo not drawn) | -2 | -8% | -1.0% | 1%
60 | COCCC(=O)N1CCc2ccc(NC(=O)c3ccc(C(F)(F)F)cc3)cc2C1 | · | 18% | 0.1% | -16%
61 | CCOc1ccc2ncc(C(=O)c3ccc(OC)cc3)c(N3CCN(CC)CC3)c2c1 | -9 | 3% | -0.2% | -15%
62 | Cc1cccc(NC(=S)N=Nc2c(O)[nH]c3ccccc23)c1 | -7 | 17% | 3.4% | 15%
63 | CC(C)(C)OC(=O)NNC(=O)NC12CC3CC(CC(C3)C1)C2 | -2 | -4% | 0.3% | -12%
64 | COc1ccc(NC(=O)N2CCN(c3cccc(C(F)(F)F)c3)CC2)cc1 | -30 | -9% | -2.2% | 1%
65 | COc1cc2c(cc1OC)C(c1ccccc1F)OC(=O)C2 (stereo not drawn) | 2 | -5% | -3.4% | -9%
66 | O=C(Nc1c(C(=O)C2CC2)oc2ccccc12)c1ccc(Cl)cc1 | 7 | 1% | -0.8% | 21%
67 | O/N=C/c1ccnc(SCc2ccc(Cl)cc2)n1 | 0 | -52% | -3.0% | -8%
68 | CCCCOc1ccc(C2CC(=O)N(C)C2=O)cc1 (stereo not drawn) | 1 | -32% | 3.4% | 0%
69 | CCN(CC)C(=O)CSc1nc2c(sc(=S)n2-c2ccccc2)c(=O)n1-c1ccc(OC)c(OC)c1 | · | 5% | -2.4% | 24%
70 | Cn1c(=O)[nH]c(=O)c2c1nc(Sc1nc3ccccc3s1)n2Cc1ccccc1 | 5 | -6% | 4.2% | 11%
71 | CCOc1ccccc1Nc1nc2ccccc2n2cnnc12 | 8 | -3% | ? | 0%
72 | O=c1cc(COc2ncnc3ccccc23)nc2sccn12 | -2 | -3% | 1.7% | -5%
73 | COc1ccc(CNS(=O)(=O)c2cccc(S(=O)(=O)N3CCOCC3)c2)cc1 | 7 | -2% | 3.9% | 1%
74 | Cc1ccc(S(=O)(=O)N2CC(O)C[C@H]2C(=O)OCC(=O)Nc2ccc(N3CCOCC3)cc2)cc1C (stereo partly drawn) | · | · | 3.0% | 0%
75 | Cc1cc(C)c(S(=O)(=O)N2CCCC2=O)cc1N(C)S(C)(=O)=O | · | 4% | 8.5% | 10%
76 | CC(C)n1cc(CN2CCC(C(=O)Nc3ccc(Oc4ccccc4F)cc3)CC2)cn1 | · | 17% | 0.7% | -11%
77 | CCOC(=O)C1(CCCc2ccccc2)CCN(C(=O)c2cc(C)nn2CC)CC1 | · | 20% | 1.1% | 2%
78 | O=C(c1ncc[nH]1)c1ccccc1Cl | · | 0% | -1.2% | -2%
79 | O=C(Cn1cccn1)N1CCCC(N2CCN(Cc3ccc4c(c3)OCO4)CC2)C1 (stereo not drawn) | · | -4% | 0.8% | 7%
80 | COc1ccc(/C=C/C(=O)Nc2c(C)nn(C)c2C)cc1COc1ccc(Br)cc1 | -1 | -10% | 7.4% | 17%
81 | COc1cccc(Oc2ccc(N/C=C/C(=O)C(C)(C)C)cc2)c1 | 12 | -16% | 5.4% | 3%
82 | Cc1ccc(F)cc1NC(=O)N1CCN(C2c3ccccc3-c3ccccc32)CC1 | -9 | -3% | -2.2% | -16%
83 | O=C(O)CCCNC(=O)/C=C/c1ccco1 | 1 | 0% | -8.8% | 1%
84 | Cc1ccc(C(C)C)c(OCC(O)CNC2CCCC2)c1 (stereo not drawn) | · | 3% | 3.1% | -5%
